26S disassembly: blocks ATP-dependent breakdown of the yeast 26S proteasome; inhibition of disassembly, % (concentration not given with the values); anti-FLAG beads, GFP-proteasome disassembly, flow cytometry; 0.2% of 24,000 active;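 active means above 40%; inconclusive means likely self-fluorescent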;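 further: plate controls were ATP control with full disassembly for no effect and ATP-gamma-S intact proteasomes for full effect; higher percent means more bead fluorescence retained so stronger block of disassembly; stock transfer was 100 nL into about 10 µL; wells with too few beads may also be inconclusive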
VCAM-1 up: boosters of cytokine-driven VCAM-1 levels – cell-based, plate reader, pooled HUVEC, TNFa stimulus (AID 455) | HUVEC TNFa-induced VCAM-1 immunofluorescence, plate reader; numbers were filed only for top-ranked candidate wells | augmentation, % at 5 µM | 0.2% of 10,000 active;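 active means a compound raising TNF-alpha-driven VCAM-1 surface staining, with its hit status upheld on visual or statistical review; inactive means the rest, including hits rejected on review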;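 further: 0% = TNFa with vehicle and 100% = strongest image-checked hit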
An asterisk follows results filed as active; i = inactive; ? = inconclusive; nt = not tested or not shown. A portion of the library (hit frequency here may not be typical).

Each structure is followed by: 26S disassembly, VCAM-1 up
COc1ccc(-c2cc(C(=O)Nc3cccc(C(C)=O)c3)no2)cc1
→ -0.6, nt
CCCS(=O)(=O)N1CCCC(C(=O)N2CCN(c3ccccn3)CC2)C1 (configuration not stated)
→ 0.7, nt
COc1ccc(C(=O)N2CCc3cc(OC)c(OC)cc3C2)cc1OC
→ 0.7, nt
CC(C)n1c(CCC(=O)O)ccc1-c1ccccc1
→ 4.5, nt
CCOCCCNCc1cccc(OC)c1
→ 1.9, nt
Cc1ccccc1OCc1nc(-c2ccc(-n3cccc3)cc2)no1
→ 0.8, nt
O=C(Cn1cnc2c(cnn2-c2ccc(F)cc2)c1=O)NCC1CCCO1 (configuration not stated)
→ 1.7, nt
Cc1ccc(Nc2nc(N)nc(CN3CCCCCC3)n2)cc1
→ 1.1, i
COc1ccc(-c2c(C)oc3cc(O)cc(O)c3c2=O)cc1OC
→ -0.1, nt
CCOc1ccc(NC(=O)N2CCN(c3nc4ccccc4s3)CC2)cc1
→ -0.5, nt
COc1ccc(S(=O)(=O)Cc2ccc(C(=O)N3CCN(c4cccc(C)c4C)CC3)o2)cc1
→ -0.9, nt
COc1cccc(-c2cc(C(F)(F)F)nc(N3CCOCC3)n2)c1
→ 0.0, nt
Cc1cc2ccccc2c(=O)n1CC(=O)NCC(=O)N1CCN(c2cccc(Cl)c2)CC1
→ -0.1, nt
COc1cc2c(c(OC)c1)C(c1ccncc1)CC(=O)N2 (configuration not stated)
→ 0.3, i
CCOc1cc(C(=O)Nc2c3c(nn2C(C)(C)C)CS(=O)C3)cc(OCC)c1OCC (configuration not stated)
→ -1.5, i
O=C(O)CSc1cccc2cccnc12
→ -1.5, nt
O=C(NCC(F)(F)F)N1CCOCC1
→ 1.2, i
Cc1c(NC(=O)Cn2nc(C(=O)O)c3ccccc3c2=O)c(=O)n(-c2ccccc2)n1C
→ -2.9, i
O=C(CP(=O)(c1ccccc1)c1ccccc1)N1CCCCC1
→ -1.3, i
O=C(NCc1ccccc1Cl)C1CCN(S(=O)(=O)N2CCCCC2)CC1
→ -0.3, nt
CCOC(=O)Cn1c(=O)oc2cc(S(=O)(=O)Nc3cc(OCC)ccc3OCC)ccc21
→ 0.8, nt
O=c1[nH]cnc2c1nc(SCc1ccccc1)n2C1OC(CO)C(O)C1O (configuration not stated)
→ 0.3, i
COc1cccc(C=Nc2ccc3c(c2)OCCO3)c1O
→ -0.5, i
O=C1NC(=O)C(CC(=O)N(Cc2ccco2)C2(C(=O)NC3CCCC3)CCCCC2)N1 (configuration not stated)
→ 1.3, i
COc1cc2c(C(=O)NCCCOC(C)C)cn(CC(C)C)c(=O)c2cc1OC
→ -0.8, nt
CCOc1ccc(CCNC(=O)CCN2C(=O)COc3ccccc32)cc1OCC
→ -0.9, nt
COc1ccc(CN2CC34C=CC(O3)C(C(=O)O)C4C2=O)cc1 (configuration not stated)
→ 1.3, nt
COc1ccc(C2=NOC(C(=O)N3CCCc4ccccc43)C2)cc1 (configuration not stated)
→ 0.0, nt
O=C(NCc1ccc(F)cc1)c1cc2n(n1)C(C(F)(F)F)CC(C1CC1)N2 (configuration not stated)
→ 0.1, nt
O=C(C(Cc1ccccc1)n1cccc1)N1CCN(C2CCCCC2)CC1 (configuration not stated)
→ 1.4, nt
COc1ccccc1-c1cc(C(F)(F)F)nc(NCc2ccco2)n1
→ 0.8, nt
COc1cccc(C(CC(=O)NCc2ccco2)NS(=O)(=O)c2ccc(C)cc2)c1OC (configuration not stated)
→ -0.4, nt
COC(=O)c1[nH]c2ccccc2c1NC(=O)CN1CCC(C(N)=O)(N2CCCCC2)CC1
→ -2.9, i
COC(=O)C(NS(C)(=O)=O)(c1c(C)[nH]c2ccccc12)C(F)(F)F (configuration not stated)
→ 0.1, nt
COc1cccc(C2CC(c3ccccc3OC)n3nc(N)nc3N2)c1 (configuration not stated)
→ -1.8, nt
C[C@@H]1C[C@H]2[C@@H]3CCC4=CC(=O)C=C[C@]4(C)[C@@]3(F)[C@@H](O)C[C@]2(C)[C@@]1(O)C(=O)COP(=O)(O)O
→ 0.6, i
CCOc1ccc(NC(=O)CSc2nccn2C)cc1
→ 1.7, i
CCOC(=O)c1oc2ccccc2c1CN1CCN(C(=O)c2ccccc2)CC1
→ -0.4, nt
O=C(O)C1CC=C(Cl)CC1C(=O)NCC1OCCc2ccccc21 (configuration not stated)
→ 1.5, nt
O=C(Nc1ccccc1F)C1CCCN(S(=O)(=O)c2cccc3cccnc23)C1 (configuration not stated)
→ 1.0, nt
COc1ccc(OC)c(C2CC(=O)N3CN(c4ccccc4F)CSC3=C2C#N)c1 (configuration not stated)
→ -0.6, nt
CC1CCc2c(sc3c2C2=NS(=O)(=O)CCN2C=N3)C1 (configuration not stated)
→ 1.7, i
O=C(NCc1cccnc1)c1ccccc1Br
→ -2.0, i
Cc1c(NC(=O)OCCNC(=O)Nc2ccccc2)sc(=S)n1C
→ 0.5, nt
COc1ccccc1-c1nnc(SCC(=O)N2CCOCC2)o1
→ -4.4, nt
N#CCCN1CCN(S(=O)(=O)c2ccc(S(=O)(=O)N3CCCCCC3)cc2)CC1
→ -0.5, nt
COc1ccc(S(=O)(=O)N2CCN(CCO)CC2)cc1-c1nnc2c3ccccc3c(C)nn12
→ -0.9, nt
COCCN(C(=O)Nc1ccccc1)C(C)c1cccnc1 (configuration not stated)
→ -1.8, nt
CC(NC(=O)C1CCCN(S(=O)(=O)c2cccs2)C1)c1ccccc1 (configuration not stated)
→ -0.6, i
Cc1ccc(C(=O)N2CCCC(c3nc4c(nnn4Cc4ccccc4)c(=O)[nH]3)C2)cc1 (configuration not stated)
→ 0.8, i
CCOc1ccc(-c2nc(CSCC(=O)NCCN3CCOCC3)c(C)o2)cc1
→ -0.2, nt
CSc1cccc(-n2cc(-c3ccc4c(c3)OCO4)[nH]c2=O)c1
→ -0.7, nt
C=CCN1C(=O)CS/C1=C(\C#N)S(=O)(=O)c1ccc(C)cc1
→ ?, i
O=C1CCCc2nn(-c3ccccc3)c(-c3ccncc3)c21
→ -1.5, nt
O=C(Nc1ccc(Br)cc1F)C1CCCN(S(=O)(=O)c2cnc[nH]2)C1 (configuration not stated)
→ -1.1, nt
Cc1ccc(CNC(=O)CS(=O)Cc2nc(-c3cccs3)oc2C)cc1 (configuration not stated)
→ 13, nt
CCCCC(CC)CNC(=O)C1CCCN(S(=O)(=O)c2cnc[nH]2)C1 (configuration not stated)
→ 0.2, i
COc1ccc(NC(=O)CN(c2ccc(C(C)C)cc2)S(=O)(=O)c2c(C)noc2C)cc1OC
→ -1.1, i
Cc1cc(NC(=O)CSc2nc3c(c(=O)n2-c2ccc(Br)cc2)SCC3)no1
→ -2.5, nt
O=C(OCC(CO)OC(CO)n1ccc(=O)[nH]c1=O)c1ccccc1 (configuration not stated)
→ -2.5, nt

Next compounds:
Each structure is followed by: 26S disassembly, VCAM-1 up
Cc1cc(OCC(O)CN2CCN(CCO)CC2)ccc1C(C)C (configuration not stated)
→ 1.8, i
CCCCN(C)CCCNC(=O)c1ccc(N2CCCC2=O)cc1
→ 0.8, nt
COCCNC(=O)C1CC(=O)N(C2CCCC2)C1 (configuration not stated)
→ -0.8, nt
c1ccc(-c2cn3c4c(sc3n2)CCCC4)cc1
→ 0.3, i
CC1(C)O[C@@H]2C[C@H]3[C@@H]4CCC5=CC(=O)C=C[C@]5(C)[C@@]4(F)[C@@H](O)C[C@]3(C)[C@]2(C(=O)CO)O1
→ -0.1, i
O=C(CCNS(=O)(=O)c1cccs1)Nc1ccccc1F
→ 13, i
CCOC(=O)c1c(C)c(C(=O)NCc2ccccn2)c(C)n1C
→ 0.1, nt
Cc1ccc(CNC(=O)C2CCCN(S(=O)(=O)c3cccnc3)C2)cc1 (configuration not stated)
→ -4.0, i
Cc1cc(=O)c2cc(Cl)ccc2[nH]1
→ -2.7, nt
COc1ccc(CNc2nc(SCC(=O)NCc3ccco3)nc3ccccc23)cc1
→ 0.6, i
O=C(CSCc1cnn(-c2ccccc2)c1-n1cccc1)NCCN1CCOCC1
→ -1.4, nt
COC(=O)c1ccccc1NC(=O)Cn1cnc2ccc(S(=O)(=O)N3CCC(C)CC3)cc2c1=O
→ -1.4, nt
CC(=O)Nc1ccc(S(=O)(=O)/N=C2\SCCN2S(=O)(=O)c2ccc(NC(C)=O)cc2)cc1
→ 0.4, nt
Cc1ccc2nc(NC(=O)C3CCCN(S(=O)(=O)c4cccc5nonc45)C3)sc2c1 (configuration not stated)
→ 22, i
Cc1ccc(C(c2sc3nc(C)nn3c2O)N2CCN(c3ccc(F)cc3)CC2)cc1 (configuration not stated)
→ -0.2, nt
CCN(c1ccccc1)S(=O)(=O)c1ccc(F)c(C(=O)O)c1
→ -0.9, nt
C=C(C)Cn1c(-c2ccccc2)nc2ccccc21
→ -2.3, i
CCn1nc(C)c(/C=C2\CCCC3=C2OC(N)=C(C#N)C3c2c(C)nn(CC)c2C)c1C (configuration not stated)
→ 0.6, nt
CCOC(=O)c1cc2n(n1)C(C(F)(F)C(F)(F)F)CC(C)N2 (configuration not stated)
→ 1.0, i
O=C(NCc1ccccc1)c1cc(-c2cccs2)on1
→ -0.2, nt
N#Cc1c(Nc2ccccc2)c(C=NCCN2CCOCC2)c[nH]c1=O
→ -2.8, nt
COc1cc(NS(=O)(=O)c2ccc(Br)s2)cc(OC)c1
→ 5.3, i
Cc1nnc(SCC(=O)Nc2cccc(C(F)(F)F)c2)[nH]c1=O
→ -0.9, nt
CCC1CCCCN1C(=O)c1cc(-c2ccc(Cl)c(Cl)c2)on1 (configuration not stated)
→ 0.2, nt
CCN(CC)C(=O)CSc1nnc(-c2cc(OC)cc(OC)c2)o1
→ 0.4, i
CCCOc1ccc(/C(O)=C2/C(=O)C(=O)N(CCCOC)C2c2ccncc2)cc1 (configuration not stated)
→ 0.8, i
COc1c(C(=O)Nc2c(C)n(C)n(-c3ccccc3)c2=O)ccc2ccccc12
→ 0.8, i
O=C(CSc1nnnn1C1CCCCC1)N1CCc2ccccc21
→ -0.3, i
COC(=O)C1CCN(C(=O)NC(C)(C)C)CC1
→ -1.3, i
Cn1cccc1C1NC(=O)c2c(sc3c2CCC(C(C)(C)C)C3)N1 (configuration not stated)
→ 1.3, i

By substructure: those above containing bromine.
Each structure is followed by: 26S disassembly, VCAM-1 up
O=C(NCc1cccnc1)c1ccccc1Br
→ -2.0, i
O=C(Nc1ccc(Br)cc1F)C1CCCN(S(=O)(=O)c2cnc[nH]2)C1 (configuration not stated)
→ -1.1, nt
Cc1cc(NC(=O)CSc2nc3c(c(=O)n2-c2ccc(Br)cc2)SCC3)no1
→ -2.5, nt
COc1cc(NS(=O)(=O)c2ccc(Br)s2)cc(OC)c1
→ 5.3, i

Four entries from above, bar-delimited:
Structure | 26S disassembly | VCAM-1 up
COc1cc(NS(=O)(=O)c2ccc(Br)s2)cc(OC)c1 | 5.3 | i
CCn1nc(C)c(/C=C2\CCCC3=C2OC(N)=C(C#N)C3c2c(C)nn(CC)c2C)c1C (configuration not stated) | 0.6 | nt
CCN(CC)C(=O)CSc1nnc(-c2cc(OC)cc(OC)c2)o1 | 0.4 | i
O=C(CSc1nnnn1C1CCCCC1)N1CCc2ccccc21 | -0.3 | i

Continuation.
Each structure is followed by: 26S disassembly, VCAM-1 up
CC1=C(C(=O)Nc2ccccc2C)C(c2ccc(C)o2)N2C(=O)CSC2=N1 (configuration not stated)
→ -1.0, i
O=C(NCCN1CCOCC1)c1ccc2c(c1)N(Cc1ccccc1F)C(=O)CS2
→ 0.6, i
CC(=O)Nc1c(C(=O)O)[nH]c2ccccc12
→ -2.3, i
COc1ccc(C(=O)Nc2nncs2)cc1S(=O)(=O)N1CC(c2ccccc2)CC1=O (configuration not stated)
→ 0.6, nt
CCOc1ccc(N2C(=O)c3cccnc3C2Nc2ccc(Cl)cc2)cc1 (configuration not stated)
→ 0.3, nt
CCOc1ccc2nc(N3CCCC(C(=O)N4CCN(CC)CC4)C3)sc2c1 (configuration not stated)
→ 0.6, nt
COC(=O)c1ccccc1NC(=O)Cn1ccnc1
→ 0.6, i
CCOC(=O)N1CCN(C(=O)c2ccc3nc4ccsc4c(=O)n3c2)CC1
→ -0.5, i
CCOCCCNC(=O)c1cc(C)nn1-c1ccccc1
→ 1.7, nt
O=C(Nc1ccc(Cl)cc1C(=O)O)c1ccc2c(c1)C(=O)N(Cc1ccco1)C2=O
→ -2.3, i
CCCN1C(=O)C2C(C(=O)Nc3cccc(OC)c3)C3C=CC2(O3)C1C(=O)NC1CCCCC1 (configuration not stated)
→ -0.9, nt
COc1nc(NC(C)(C)C)nc(Oc2ccc(=O)n(C)n2)n1
→ 0.0, nt
COCCOC(=O)C1=C(C)OC(N)=C(C#N)C1c1ccc2c(c1)OCO2 (configuration not stated)
→ -0.5, i
O=C(Nc1ccc(-c2noc(CCc3ccccc3)n2)cc1)c1ccco1
→ 0.6, nt
Cc1onc(-c2ccccc2Cl)c1C(=O)Nc1ccc(-n2nncc2C(C)(C)C)cc1
→ 2.0, nt
CC(C)OC(=O)CN1CCN(C2c3ccccc3-c3ccccc32)CC1
→ 0.7, nt
Cn1cccc1Cc1nnc(SCC(=O)N2CCCc3ccccc32)n1-c1ccc(F)cc1
→ -2.0, nt
CCC(C)C(NCc1cccc(C)c1)C(=O)O (configuration not stated)
→ -4.0, nt
CC(C)CN(CC(C)C)S(=O)(=O)N1CCC(C(=O)NCc2cccs2)CC1
→ 1.7, nt
COc1ccc(CCNC(=O)CN2CCOc3ccccc32)cc1OC
→ -1.9, nt
C/C=C(\C)c1nnc(NC(=O)C(C)C)s1
→ 0.2, i
O=C(O)CCC(=O)N1CCc2cc(S(=O)(=O)N3CCN(c4ccc(F)cc4)CC3)ccc21
→ -1.2, nt
COc1ccc(NC(=O)CSc2nc3ccccc3c(=O)n2CCNC(C)=O)cc1
→ 0.7, nt
